FEN1 inhibitor: blocks human flap endonuclease 1 | Potency, µM (series often up to 114 µM), for the others: at the top dose activity change, negative = inhibition, actives largely listed as inhibitors | Recombinant FEN1 flap cleavage, fluorescence, 15 min | 390,000 tested, 0.35% active | AID 588795; also: nearly all actives have a fitted effect of over 65% in size
Target sequence (P39748 whole entry, looked up): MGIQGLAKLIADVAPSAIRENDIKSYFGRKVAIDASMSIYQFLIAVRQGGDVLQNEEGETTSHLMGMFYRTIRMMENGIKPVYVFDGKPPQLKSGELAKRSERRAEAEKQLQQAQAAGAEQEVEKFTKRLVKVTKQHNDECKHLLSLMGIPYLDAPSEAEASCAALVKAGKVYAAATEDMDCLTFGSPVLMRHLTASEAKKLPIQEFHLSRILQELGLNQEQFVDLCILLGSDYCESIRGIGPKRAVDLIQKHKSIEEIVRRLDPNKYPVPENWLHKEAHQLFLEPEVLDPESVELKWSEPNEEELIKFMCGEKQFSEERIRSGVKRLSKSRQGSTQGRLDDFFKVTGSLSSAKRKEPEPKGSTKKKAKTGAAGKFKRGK
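With each library titrated from low to high concentration, compounds met 10 nM FEN1 for 15 min at room temperature before 50 nM substrate was added; readings at 0 and 15 min fed four-parameter Hill curve fits.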
N370S GC mod: N370S glucocerebrosidase modulation, Gaucher chaperone candidate; Potency, µM (highest dose often 59.4 µM), without a hit: top-dose activity change, negative = inhibition, hits mostly inhibitors; N370S GC spleen homogenate, 4MU-glucoside fluorescence; 330,000 tested, 0.092% active; P04062; AID 2101;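 also: 0% = full enzyme activity and -100% = no enzyme basal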
An asterisk follows results filed as active; ? = inconclusive; / = no result given; & = joins results of further samples; [ ] = another dose, or the depositor's remark. Calls follow the shape of the dose curve; as a rule, active = well fitted curve in the direction sought with a large enough effect; inconclusive = small, poorly fitted or top-dose-only effect, or another doubt; inactive = no such curve, though single readings can be large; an effect the other way counts as inactive or inconclusive. Unless noted, % is scaled to controls: 0 for no effect and ±100 for the full control effect; potency is read from the fitted curve at half-maximal effect.

smiles | FEN1 inhibitor | N370S GC mod
Cc1nnc(SCC(=O)NC2CCCCCC2)n1C | -8% | -1%
Cc1ccc(S(=O)(=O)NCc2ccc(C(=O)N3CCCC3)cc2)cc1 | 3% | -4%
CCCCN(C(=O)c1cc(S(=O)(=O)N2CCCCCC2)ccc1OC)c1c(N)n(CCC)c(=O)[nH]c1=O | -5% | -5%
CCC(=O)N1CCc2cc(S(=O)(=O)CCC(=O)NCc3ccccc3OC)ccc21 | -6%&5% | 3%
O=C(O)COc1ccc(NC(=O)c2ccco2)cc1 | -15% | -6%
O=C(CN1CCN(CCC(=O)Nc2ccccc2F)CC1)Nc1ccc(F)cc1 | 7% | 5%
Cc1ccc2cccc(NC(=O)c3ccc(-c4ccc(Cl)cc4Cl)o3)c2n1 | 3% | /
COc1cc(S(=O)(=O)n2cnc(C)c2)ccc1Cl | -3% | -3%
Clc1ccc(Nc2nc3ccccc3n3nnnc23)cc1 | 0% | 9%
COc1cc(NC(=O)CCc2nnc3ccc(N4CCN(C)CC4)nn23)cc(OC)c1 | 25% | 2%
O=S(=O)(Cc1ccccc1)N1CCNCC1 | 15% | -2%
COc1cc(C2=NOC(C(=O)N3CCCc4ccccc43)C2)cc(OC)c1OC (configuration not stated) | -12% | 0%
CCOC(=O)Cc1nnc(NC(=O)c2ncn[nH]2)s1 | -13% | -7%
CN(C(=O)CCc1nnc(CCCCc2ccccc2)o1)C1CC(C)(C)NC(C)(C)C1 | 4% | 0%
O=C(COC(=O)CN1C(=O)COc2ccccc21)NC1CCCCC1 | 5% | -4%
CCc1ccc(C(=O)COC(=O)c2cccs2)cc1 | -2% | 22%
O=C(O)/C=C\C(=O)Nc1ccc(Oc2ccc(Br)cc2)cc1 | 2% | -3%
CC(C)CC(NC(=O)C(NC(=O)C1CCC(=O)N1C(=O)OCc1ccccc1)C(C)C)C(=O)N1CCCC1C(N)=O (configuration not stated) | -1% | -10%
COc1ccccc1-n1cnc2cc(NC(C)=O)ccc21 | -3% | 18%
Cc1ccc(S(=O)(=O)NC2=NCN(CCc3ccccc3)CN2)cc1 | -7% | 3%
COc1ccc(-c2cc(C(=O)Nc3c(C)n(C)n(-c4ccccc4)c3=O)no2)cc1OC | 15%&-6% | 1%
O=C(Cn1c(=O)nc(-c2ccccc2)c2cc(Cl)ccc21)NCCc1ccc(Cl)cc1 | -5% | /
CN(C)CCCNCCCNC(=O)/C(=N\O)c1ccccc1 | 2% | -8%
CCCOC1CCCN(C(=O)CCc2nnc(CCCCc3ccccc3)o2)C1 (configuration not stated) | -12% | 4%
CCOC(=O)/C(=N\Nc1ccc(Cl)cc1)c1csc(Nc2ccccc2)n1 | -20% | 11%
CCOC(=O)c1ccc(NNC(C)=O)c([N+](=O)[O-])c1 | -16% | -6%
Cc1cccc(C)c1NC(=O)Cn1nc(-c2ccccc2)nc1-c1ccccc1 | -3% | 4%
CCOc1ccc(N(C)S(=O)(=O)c2c[nH]c(C(=O)OC)c2)cc1 | 1% | -12%
COc1ccccc1N1CCN(C[C@@H](O)COc2cccc3ccccc23)CC1 | / | -9%
CCN(C(=O)Cc1nc(N)n[nH]1)C1(C(=O)Nc2ccccc2)CCCCC1 | 12% | 6%
C=CC[C@H](CC(=O)NCCO)C(=O)N[C@H](COC(=O)[C@@H](CC=C)Cc1ccc(F)cc1)c1ccccc1 | 4% | /
O=C(O)CSCC(=O)Nc1ccc(C(=O)O)cc1 | -5% | -1%
CCCNC(=O)CCn1nc(-c2ccccc2)c2ccccc2c1=O | -10%&-5% | -5%
CCCCN(C)CCCNC(=O)Cn1c(=O)sc2ccccc21 | -4% | -7%
COc1ccc(C(=O)Sc2ccc(C)cc2)cc1OC | -14% | 3%
CC(C1CC2CCC1C2)N1CC(O)=C(c2nc3ccccc3[nH]2)C1=N (configuration not stated) | 8% | 23%
CCC(C(=O)Nc1ccccc1OC)n1nc(C)c2sc3ccccc3c2c1=O (configuration not stated) | 6% | /
O=C(Nc1ccccn1)C1CCN(S(=O)(=O)c2ccc(Cl)cc2)CC1 | 1% | 0%
CC(C)(C)NC(=O)NC(=O)CN1CCN(S(=O)(=O)c2ccc3c(c2)OCCO3)CC1 | -17% | -3%
O=C(Nc1nc(-c2nc3ccccc3s2)cs1)c1ccco1 | -1% | 12%
O=C(O/N=C1/CCCc2occc21)c1ccc(Cl)cc1Cl | 5% | 2%
N#C/C(=C/c1ccc(-c2ccc(S(N)(=O)=O)cc2)o1)C(=O)Nc1ccccc1 | -8% | -8%
CCOc1ccc(CCNC(=O)COC(=O)c2nc3nc(C)cc(C)n3n2)cc1OCC | 1% | -1%
S=C(Nc1cccc(Cl)c1)N1CCN(Cc2ccccc2)CC1 | -5% | -12%
C(=N\N1CCN(c2ccccn2)CC1)/c1ccccn1 | 0% | -1%
COc1cccc(C(=O)Nc2c3c(nn2-c2ccc(Cl)cc2)CS(=O)(=O)C3)c1OC | 11% | -16%
O=C(CCCN1C(=O)C(c2ccccc2)Oc2cccnc21)Nc1cccc(F)c1 (configuration not stated) | -10% | ?
NC(=O)c1ccccc1NS(=O)(=O)c1cccs1 | -3% | 3%
Cc1cn2c(nc1=O)OC1C(O)C(COC(=O)c3ccccc3)OC12 (configuration not stated) | 2% | 1%
COc1ccc(/C=C(/NC(=O)c2ccccc2)C(=O)N2CCCC2)cc1OC | 3% | 6%
CCOC(=O)C1C(C(=O)OC)=C(c2ccc(OC)cc2)c2ccc(OC)cc2N1S(=O)(=O)C(F)(F)F (configuration not stated) | -28% | -10%
CC(C)c1cc(NCC2CCCO2)n2c(nc3ccccc32)c1C#N (configuration not stated) | -2% | ?
COc1ccc(CN(CC2CCCO2)S(=O)(=O)c2ccc(-n3cnnn3)c(OC)c2)cc1 (configuration not stated) | -13% | -10%
Cc1ccc(CC2CC(=O)N(CCc3ccc4c(c3)OCO4)C2=O)cc1 (configuration not stated) | 13% | 7%
CCn1ncc(/C=N/N=C2\CCC3C4CCc5cc(O)ccc5C4CCC23C)c1C (configuration not stated) | -2% | -21%
C=CCCCCCCCCC(=O)Nc1ncccn1 | ? | 5%
CC(C)[C@H](NC(=O)OCc1ccccc1)C(=O)N[C@H](C=O)Cc1ccccc1 | / | -6%&22%
C#CCOCCOCCOCCNc1nc(N2CCN(C(=O)[C@H](CCCCN)n3cc(CN)nn3)CC2)nc(N2CCN(C(=O)[C@H](CCC(=O)O)n3cc([C@@H](N)CCCCN)nn3)CC2)n1 | -1% | /
CCN(CC)S(=O)(=O)c1ccc(OC)c(NC(=O)Cn2cnc3c2c(=O)n(C)c(=O)n3C)c1 | 3% | 3%
COc1ccc(CCNc2nc(N3CCOCC3)nc(N3CCOCC3)n2)cc1OC | -3% | -3%

New compounds follow:
Order of results – FEN1 inhibitor, N370S GC mod
> CCOc1ccc(S(=O)(=O)N2CCN(C(=O)c3ccccc3Cc3ccccc3)CC2)cc1
  11%, 0%
> CN(C)S(=O)(=O)c1ccc(NC(=O)CCNC(=O)c2ccc([N+](=O)[O-])cc2)cc1
  3%, -5%
> c1ccc(-c2cccs2)nc1
  -1%, 0%
> O=S(=O)(NCC1CCN(S(=O)(=O)c2ccccc2)CC1)c1ccccc1
  8%, 2%
> COc1ccccc1OCC(=O)NCCNC(=O)COc1ccccc1OC
  -1%, 2%
> Cc1ccc(NC(=O)COC(=O)C2=COCCO2)c([N+](=O)[O-])c1
  2%, 0%
> C=CCn1c(O)c(/C=C2\C=NN=C2c2ccccc2)sc1=S
  -22%, 17%
> CC(CC1C(C#N)=C(N)OC2=C1C(=O)CCC2)c1ccccc1 (configuration not stated)
  -1%, 5%
> CC(C)CCOC(=O)C[N+](C)(C)CCOC1CC2CCC1(C)C2(C)C (configuration not stated)
  -3%, -15%
> C/C(CC(=O)Nc1ccccc1[N+](=O)[O-])=N\NC(=O)COc1ccccc1C
  -8%, -2%
> CCN(CC)S(=O)(=O)c1ccc(N2CCCC2)c(NC(=O)Cc2c(F)cccc2Cl)c1
  -1%, -22%
> CC(=O)c1cccc(N(C(=O)c2ccco2)C(C(=O)NC2CCCC2)c2ccccc2F)c1 (configuration not stated)
  -18%, -7%
> Cc1[nH]c(=O)nc2c1CCC2
  8%, 7%
> Cc1ccc(S(=O)(=O)Nc2ccc3c(c2)CCCN3C(=O)c2cccs2)cc1
  -11%, /
> COc1ccc(C(=O)NCC2CCCCC2)cc1S(=O)(=O)N1CCOCC1
  11%, /
> COc1ccc(CNC(=O)CCCN2C(=O)c3cccnc3Oc3ccc(Cl)cc32)cc1
  -3%, /
> Cc1cc2cc(CNC(=S)Nc3ccc(OC(F)(F)F)cc3)ccc2[nH]1
  13%, -3%
> Cc1c(C(N)=O)sc2ncn(CCOc3ccccc3)c(=O)c12
  -19%, 4%
> Cc1ccc2c(c1)c1c(c(=O)n(-c3ccccc3)c(=O)n1CC(=O)N1CCCC1)n2C
  1%, /
> COc1ccc(OC)c(CNC(=O)c2cccc(NC(=O)N3CCSc4ncccc43)c2)c1
  15%, /
> N#Cc1cccc(NC(=O)C2CCCN(C(=O)c3ccc(Cl)cc3)C2)c1 (configuration not stated)
  -7%, /
> CC(CNS(=O)(=O)c1ccccc1)(c1ccccc1)N1CCCCC1 (configuration not stated)
  -21%, 0%
> NC(=O)C1CCN(C(=O)c2ccc([N+](=O)[O-])cc2NC(=O)c2cccs2)CC1
  -1%, 0%
> CCOC(=O)c1c(NC(=S)NC(=O)c2ccco2)sc2c1CCCC2
  3%, -9%
> COC(=O)CC1c2cc(OC)c(OC)cc2CC(=O)c2cc(OC)c(OC)cc21 (configuration not stated)
  -4%, -7%
> CC(=O)Nc1ccc(Oc2cc(NC(C)=O)cc([N+](=O)[O-])c2)cc1
  0%, -11%
> OC[C@H](O)[C@H](O)[C@@H](O)[C@@H](O)[C@@H]1SC(c2ccccc2)=NN1c1ccccc1
  0%, -2%
> CCOc1ccc(CN(CCC#N)C(=S)NC(=O)c2ccccc2)cc1
  -10%, 10%
> CN(Cc1ccccc1)C(=O)c1nc2ccccn2c1CNCCCOc1cccnc1
  -4%, -3%
> COc1ccc(C(=O)NC2CCN(CC(=O)NCc3ccccc3F)CC2)cc1
  11%, -7%
> CC1CCC2(CC1)NC(=O)N(Cc1nnc(-c3cccs3)o1)C2=O (configuration not stated)
  -10%, 3%
> CCOc1ccc(Cl)cc1S(=O)(=O)N1CCC(C(=O)NCc2cccnc2)CC1
  -4%, -26%
> CCN(Cc1ccccc1)C(=O)CSc1ccccc1C(=O)O
  19%, 4%
> CC(Sc1nnc(C2CCCCC2)n1N)C(=O)NCc1ccc2c(c1)OCO2 (configuration not stated)
  -6%, 2%
> CCN(CC)CCn1c(=N)n(CCOc2ccccc2)c2ccccc21
  -16%, 13%
> COC(=O)CSc1nnc(-c2ccoc2C)n1-c1ccc(OC)cc1
  1%, -1%
> CN1CCN(C(=O)c2cc(-c3ccco3)on2)CC1
  2%, 3%
> COc1ccc(NCc2cccn2-c2nnc(N3CCCCCC3)s2)cc1
  -14%, /
> COc1ccc(NC(=O)CCCSc2ccccc2)cc1S(N)(=O)=O
  -14%, 0%
> O=C(NCc1ccco1)c1cc2ccccc2o1
  -7%, 6%[2.35 µM]
> O=S(=O)(N/N=C/c1ccc(N2CCOCC2)cc1)c1ccc(Br)cc1
  6%, -9%
> Cc1ccnc(NC(=O)Cn2ccc([N+](=O)[O-])n2)c1
  3%, 1%
> CCCn1nnnc1NCc1cccc(OC)c1
  6%, -6%
> O=C(NCC1CCCO1)C1CCCN(S(=O)(=O)c2cccc3nsnc23)C1 (configuration not stated)
  -1%, -2%
> O=S(=O)(NC1CCCCC1Oc1ccccc1)c1ccccc1 (configuration not stated)
  0%, -7%
> NC(=O)C1CCN(C(=O)CN2CCCc3ccccc32)CC1
  -12%, -1%
> CC(=O)N1c2ccc(S(=O)(=O)N3CCOCC3)cc2CC1C (configuration not stated)
  4%, 2%
> Cc1ccc(C)c(NC(=O)NNS(=O)(=O)c2ccc(C)c(C)c2)c1
  15%, -6%

Reformatted with the structure last: 13 of the compounds above.
FEN1 inhibitor | N370S GC mod | canonical_smiles
12% | 6% | CCN(C(=O)Cc1nc(N)n[nH]1)C1(C(=O)Nc2ccccc2)CCCCC1
4% | / | C=CC[C@H](CC(=O)NCCO)C(=O)N[C@H](COC(=O)[C@@H](CC=C)Cc1ccc(F)cc1)c1ccccc1
-5% | -1% | O=C(O)CSCC(=O)Nc1ccc(C(=O)O)cc1
-10%&-5% | -5% | CCCNC(=O)CCn1nc(-c2ccccc2)c2ccccc2c1=O
-4% | -7% | CCCCN(C)CCCNC(=O)Cn1c(=O)sc2ccccc21
-14% | 3% | COc1ccc(C(=O)Sc2ccc(C)cc2)cc1OC
8% | 23% | CC(C1CC2CCC1C2)N1CC(O)=C(c2nc3ccccc3[nH]2)C1=N (configuration not stated)
6% | / | CCC(C(=O)Nc1ccccc1OC)n1nc(C)c2sc3ccccc3c2c1=O (configuration not stated)
1% | 0% | O=C(Nc1ccccn1)C1CCN(S(=O)(=O)c2ccc(Cl)cc2)CC1
-17% | -3% | CC(C)(C)NC(=O)NC(=O)CN1CCN(S(=O)(=O)c2ccc3c(c2)OCCO3)CC1
-1% | 12% | O=C(Nc1nc(-c2nc3ccccc3s2)cs1)c1ccco1
5% | 2% | O=C(O/N=C1/CCCc2occc21)c1ccc(Cl)cc1Cl
-8% | -8% | N#C/C(=C/c1ccc(-c2ccc(S(N)(=O)=O)cc2)o1)C(=O)Nc1ccccc1

Retrieved one by one from the list above (2):
Order of results – FEN1 inhibitor, N370S GC mod
> Cc1ccnc(NC(=O)Cn2ccc([N+](=O)[O-])n2)c1
  3%, 1%
> CC(=O)N1c2ccc(S(=O)(=O)N3CCOCC3)cc2CC1C (configuration not stated)
  4%, 2%

Screening results (PubChem BioAssay)

A portion of the library; most or all hits stand in other tables.
